Screening data: PubChem BioAssay, several laboratories
MT1-MMP act inh: blockers of MT1-MMP proenzyme processing, primary screen, HT1080 RFP-PRO-GFP cells, GFP/RFP fluorescence; GFP/RFP ratio fluorescence, overnight; percent of plate control window, DMSO zero; GFP/RFP ratio change, % at 20 µM; 360,000 compounds, 0.061% hits; Matrix metalloproteinase-14 (Homo sapiens), P50281; AID 651647, 2012;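 active = GFP/RFP ratio change of at least 30% with cell ATP level not reduced by more than half and red fluorescence within 50% of control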; also: strong numbers were not always called active
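Assay system: HT1080 RFP-PRO-GFP cells. Benchmarks: DMSO vehicle wells and RFP-L50D-GFP reporter cell wells. Times: overnight cell settling, then overnight compound exposure, 37 °C, 5% CO2. Compound: 20 µM single dose, 1% DMSO. Read-out basis: GFP/RFP fluorescence ratio.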
Env fusion inh: inhibitors of HIV-1 Env-driven cell-cell fusion, primary screen, HeLa-JRFL effector, CEM21 target cells, luciferase. inhibition, % at 12.3 µM. 360,000 compounds, 1.1% hits;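 active = mean replicate inhibition score of at least 50 and every replicate individually at or above 50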;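 also: 0% = plate neutral controls and 100% = maraviroc near 300 nM; one replicate is shown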
MT1-MMP act inh RFP: recorded beside MT1-MMP act inh, whose call it bears; RFP signal change, %; measured here: RFP expression control read;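 0 = vehicle wells; hits needed this value within 50% of zero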
* hit, by the source's call; x = no result given; & = joins results of further samples; [ ] = dose if it differs, or a comment. Only part of the results is shown, so the mix of outcomes need not match the whole.

SMILES	MT1-MMP act inh	MT1-MMP act inh RFP	Env fusion inh
O=C(Nc1ccc(C(F)(F)F)cc1)Nc1ccc2c(c1)[C@@H]1C[C@H](CC(=O)N3CCc4ccccc4C3)O[C@H](CO)[C@@H]1O2	x	x	82*[16.7 µM]
C[C@@H]1CN([C@@H](C)CO)C(=O)c2cc(NC(=O)Cc3ccccc3)ccc2O[C@@H]1CN(C)C(=O)Nc1ccc(C(F)(F)F)cc1	x	x	-12[16.7 µM]
CCCN1C[C@H](C)[C@@H](OC)CN(C)C(=O)c2cc(NS(=O)(=O)c3ccccc3)ccc2OC[C@H]1C	x	x	4[16.7 µM]
C[C@@H]1CN([C@H](C)CO)C(=O)c2cccc(NS(C)(=O)=O)c2O[C@H]1CN(C)C(=O)Nc1cccc2ccccc12	x	x	6[16.7 µM]
CCCCOCC1CN(CCCC)S(=O)(=O)c2c(Oc3ccc(F)cc3)cccc2O1 (stereo unspecified)	x	x	29
COc1ccc(CN(C)C[C@H]2Oc3ccc(NS(=O)(=O)c4c(C)noc4C)cc3CC(=O)N([C@@H](C)CO)C[C@H]2C)cc1	x	x	1[16.7 µM]
O=C(C1=C[C@@H](c2ccc(C(F)(F)F)cc2)C[C@@H](OCc2ccc(CO)cc2)O1)N1CCCC1	x	x	-22[16.7 µM]
C[C@@H]1CN([C@@H](C)CO)C(=O)c2c(c3ccccc3n2C)-c2ccccc2CO[C@@H]1CN(C)C(=O)c1ccncc1	x	x	5[16.7 µM]
COCC(=O)Nc1ccc2c(c1)[C@@H]1C[C@@H](CC(=O)NCc3ccc4c(c3)OCO4)O[C@H](CO)[C@@H]1O2	x	x	-17[16.7 µM]
COc1ccccc1-c1ccc2n(c1=O)C[C@H]1[C@H](CO)[C@@H](C(=O)NCC3CC3)N(S(C)(=O)=O)[C@@H]21	x	x	-10[16.7 µM]
O=C(C[C@@H]1C[C@H]2c3cc(NC(=O)c4cccnc4)ccc3O[C@H]2[C@H](CO)O1)NCC(F)(F)F	x	x	-11[16.7 µM]
O=C(NCC[C@@H]1CC[C@H](NS(=O)(=O)Cc2ccccc2)[C@@H](CO)O1)C1CCC1	x	x	-1[16.7 µM]
CO[C@@H]1CN(C)C(=O)c2cc(NS(=O)(=O)c3c(C)noc3C)ccc2OC[C@H](C)NC[C@H]1C	x	x	-3[16.7 µM]
N#C[C@H]1[C@@H](c2ccc(C3=CCCC3)cc2)[C@H](CO)N1C(=O)NC1CCCCC1	x	x	17[16.7 µM]
COc1ccc(-c2ccc3n(c2=O)C[C@H]2[C@H](CO)[C@@H](C(=O)Nc4ccccc4)[C@@H]3N2C)cc1	x	x	-3[16.7 µM]
CO[C@H]1CN(C)C(=O)c2cc(NC(=O)Nc3ccccc3F)ccc2OC[C@H](C)N(C(C)=O)C[C@@H]1C	x	x	-19[16.7 µM]
O=C(NC1CCCC1)N1CC(=O)N2[C@H](CO)[C@@H](c3ccc(-c4cccc(F)c4)cc3)[C@@H]2C1	x	x	-38[16.7 µM]
CC(C)NC(=O)Nc1ccc2c(c1)C(=O)N([C@H](C)CO)C[C@H](C)[C@@H](CN(C)Cc1ccncc1)OCCCC[C@H](C)O2	x	x	-4[16.7 µM]
OC(c1ccccc1)C1(c2ccccc2)CCN(Cc2ccccc2)CC1 (stereo unspecified)	x	x	-131
COC(=O)C[C@H]1CC[C@H]2[C@H](COc3ccc(NC(=O)c4ccccc4F)cc3C(=O)N2C)O1	x	x	-6[16.7 µM]
CC(C)(C)[Si](C)(C)OC[C@@H]1[C@H]2c3ccccc3O[C@]1(C)NC(=S)N2C(=O)c1ccccc1	x	x	14[16.7 µM]
COc1ccc(NC(=O)Nc2ccc3c(c2)[C@H]2C[C@H](CC(=O)NCCc4ccccc4)O[C@H](CO)[C@H]2O3)cc1	x	x	12[16.7 µM]
CN(C)C(=O)c1ccc(-c2ccc3n(c2=O)C[C@@H]2[C@@H](CO)[C@H](C(=O)NCCc4ccccc4)N[C@H]32)cc1	x	x	-9[16.7 µM]
C[C@@H]1C=CCCO[C@]12C(=O)N(Cc1ccc(F)cc1)c1cccc(Br)c12	x	x	-1
COc1ccc2c3c(n(C)c2c1)[C@H](CO)N(C(=O)CC1CC1)CC31CN(C(=O)CC2CC2)C1	x	x	-19[16.7 µM]

Continuation.
SMILES	MT1-MMP act inh	MT1-MMP act inh RFP	Env fusion inh
CCC(=O)N1[C@@H]2c3ccc(-c4ccc(F)cc4)c(=O)n3C[C@@H]2[C@@H](CO)[C@@H]1C(=O)N(C)C	x	x	4[16.7 µM]
CO[C@@H]1CC[C@H]2CCN(C)C(=O)[C@H](C)CN(C)C(=O)c3cc(C#N)ccc3OC[C@@H]1O2	x	x	-16[16.7 µM]
N#C[C@H]1[C@@H](c2ccc(C3=CCCCC3)cc2)[C@H](CO)N1C(=O)NC1CCCC1	x	x	8[16.7 µM]
Cc1cccc(S(=O)(=O)N2C[C@H](O)COC[C@@H]3O[C@H](CC(=O)Nc4ccc(-c5ccccc5)cc4)CC[C@H]32)c1	x	x	24[16.7 µM]
C#CCN([C@H](/C=C/C1CC1)[C@@H](O)Cc1ccccc1)[C@@H]1C(=O)N2[C@@H]1SC(C)(C)[C@@H]2C(=O)OC	x	x	3&24[16.7 µM]
CO[C@@H]1CN(C)C(=O)c2cc(NS(C)(=O)=O)ccc2OC[C@@H](C)N(C(=O)NC(C)C)C[C@H]1C	x	x	12[16.7 µM]
CN1CCN(C(=O)C[C@@H]2C[C@@H]3c4cc(NC(=O)Cc5ccncc5)ccc4O[C@@H]3[C@@H](CO)O2)CC1	x	x	11[16.7 µM]
C[C@H]1CN([C@@H](C)CO)C(=O)Cc2cc(NC(=O)Nc3cccc4ccccc34)ccc2O[C@@H]1CN(C)Cc1ccncc1	x	x	14[16.7 µM]
CN1C(=O)c2cc(NC(=O)c3ccc(F)c(F)c3)ccc2OC[C@@H]2O[C@@H](CC(=O)N3CCOCC3)CC[C@@H]21	x	x	-11[16.7 µM]
COc1ccccc1NC(=O)N[C@H]1CC[C@@H](CCNS(=O)(=O)c2ccccc2)O[C@@H]1CO	x	x	8[16.7 µM]
CN(C)C(=O)C[C@@H]1CC[C@H]2[C@@H](COc3ccc(NC(=O)NCc4ccccc4)cc3C(=O)N2C)O1	x	x	-5[16.7 µM]
CN1OC[C@@H]2CN3C(=NCCc4ccccc4)Sc4ccccc4[C@@H]3C[C@@H]21	x	x	17
CN(C)c1ccc2c(c1)[C@@H]1C[C@@H](CC(=O)NCc3cc(F)ccc3F)O[C@@H](CO)[C@@H]1O2	x	x	-1[16.7 µM]
COc1ccc(CNC(=O)C[C@H]2CC[C@@H]3[C@H](COc4ccc(NC(=O)C(C)C)cc4C(=O)N3C)O2)cc1	x	x	-13[16.7 µM]
O=S(=O)(CC=CCS(=O)(=O)c1ccccc1)c1ccccc1	3	3	x
CN1CCN(C2CN(Cc3cn(Cc4ccc(F)cc4)nn3)S(=O)(=O)C2)CC1 (stereo unspecified)	3	8	x
Cc1cc(Br)ccc1NC(=O)CN(C)C(=O)CNC(=O)Cc1ccccc1	3	2	x
CC1(C)c2ccccc2-c2nc3ccccc3cc2C1N1CCOCC1 (stereo unspecified)	4	1	x
NC(=O)C1=C(N)c2ccccc2C1c1ccccc1 (stereo unspecified)	5	3	x
Cn1c(=O)c2[nH]c(CCNC(=O)c3ccccc3)nc2n(C)c1=O	1	0	x
CCCn1c(=NC(=O)c2ccncc2)c(C#N)cc2c(=O)n3cccc(C)c3nc21	0	2	x
CC(Cc1ccccc1)=NNc1ccc([N+](=O)[O-])cc1[N+](=O)[O-]	18	10	x
CC1=C(C(=O)N2CCOCC2)CC(CC(=O)NCc2cccc3ccccc23)C(=O)N1Cc1ccccc1 (stereo unspecified)	0	3	x
CCOC(=O)C1(Cc2ccccc2C#N)CCCCC1=O (stereo unspecified)	5	-1	x
Nc1nnc(SCC(=O)Nc2cccc(Cl)c2)s1	5	3	x

Laid out differently: five of the compounds above.
| SMILES | MT1-MMP act inh | MT1-MMP act inh RFP | Env fusion inh |
| --- | --- | --- | --- |
| NC(=O)C1=C(N)c2ccccc2C1c1ccccc1 (stereo unspecified) | 5 | 3 | x |
| CN(C)C(=O)C[C@@H]1CC[C@H]2[C@@H](COc3ccc(NC(=O)NCc4ccccc4)cc3C(=O)N2C)O1 | x | x | -5[16.7 µM] |
| CC1(C)c2ccccc2-c2nc3ccccc3cc2C1N1CCOCC1 (stereo unspecified) | 4 | 1 | x |
| CN1CCN(C2CN(Cc3cn(Cc4ccc(F)cc4)nn3)S(=O)(=O)C2)CC1 (stereo unspecified) | 3 | 8 | x |
| CC(Cc1ccccc1)=NNc1ccc([N+](=O)[O-])cc1[N+](=O)[O-] | 18 | 10 | x |

The results go on:
SMILES	MT1-MMP act inh	MT1-MMP act inh RFP	Env fusion inh
CCOc1ccc2nc3cc(N=Nc4ccc(N)nc4N)ccc3c(N)c2c1	4	-22	x
O=C(CC1(O)CCCCC1)OC1CCCC1	1	-4	x
S=C(NCc1ccco1)NCc1ccco1	1	5	x
CC(=O)O[C@@H](Cc1ccc(O)cc1)C(=O)CC(C)C	-1	0	x
Cn1c(=O)c2c(-c3ccccc3)n(-c3cc([N+](=O)[O-])ccc3O)cc2n(C)c1=O	6	7	x
CN(CC(=O)Nc1ccc(F)c(F)c1F)C(=O)C1=NN(c2ccccc2)C(=O)CC1	-1	2	x
COc1ccc(NC(=O)CN(C)C(=O)Cc2ccc(-c3ccccc3)cc2)cc1	0	-6	x
O=S(=O)(c1cc(C(F)(F)F)ccc1Cl)N1CCN(c2ncnc3ccccc23)CC1	-7	-33	x
COc1cc(OC)c(N2CC(C(=O)Nc3cc(Cl)ccc3N3CCOCC3)CC2=O)cc1Cl (stereo unspecified)	-2	-11	x
COCCn1c(SCC(=O)Nc2cccnc2Cl)nc2ccccc2c1=O	-1	4	x
C[C@@H](c1ccccc1)N1C[C@H](COCc2ccccc2)Oc2cc(N3CC[C@@H](O)C3)ccc2S1(=O)=O	-2	-1	x
O=S(=O)(CCN1CCCCC1)CCS(=O)(=O)CCN1CCCCC1	-1	2	x
COCCCn1cc(CN(C)C2CN(Cc3cn(CCCOC)nn3)S(=O)(=O)C2)nn1 (stereo unspecified)	1	5	x
O=C(COC(=O)COc1ccccc1)Nc1ncc([N+](=O)[O-])s1	-1	2	x
O=C(COC(=O)c1ccccc1Br)NC1CCCCCCC1	6	-3	x
CCc1oc(-c2ccc(OC)cc2)c(C(=O)OCCCCCO)c1C(C)OCCO (stereo unspecified)	2	1	x
CCCCN1C(=O)C(CC(=O)NCCCN(C)C)CC(C(=O)N2CCOCC2)=C1C (stereo unspecified)	0	3	x
CCN(C(=O)COC(=O)/C=C/c1ccccc1Cl)c1c(N)n(Cc2ccccc2)c(=O)[nH]c1=O	0	-3	x
CC1Cc2cccc3ccc(=O)n(c23)C1 (stereo unspecified)	-1	0	x
CCCCC[C@@H](C)N1C[C@@H](COCc2ccccc2)Oc2cc(N3CCC[C@H]3CO)ccc2S1(=O)=O	-5	-12	x
O=Cc1cccc(OCc2cn(CC(=O)c3ccc(O)cc3)nn2)c1	4	0	x
COc1ccccc1C(=O)c1ccccc1C(=O)c1ccccc1	4	-2	x
COc1cc2c3c(n(C)c(=O)c2cc1OC)-c1cc2c(cc1C3=O)OCO2	2	5	x
COc1cccc2c1C(=N)c1c(O)c3c(c(O)c1C2=O)CC(O)(C(C)=O)CC3OC1CC(N)C(O)C(C)O1 (stereo unspecified)	70	52	x
CN(C)CCCn1c2c3ccccc3ccc2c2oc(=O)c3ccccc3c21	-49	1	x

Just Env fusion inh (three entries from above):
structure	Env fusion inh
C#CCN([C@H](/C=C/C1CC1)[C@@H](O)Cc1ccccc1)[C@@H]1C(=O)N2[C@@H]1SC(C)(C)[C@@H]2C(=O)OC	3&24[16.7 µM]
CO[C@@H]1CN(C)C(=O)c2cc(NS(C)(=O)=O)ccc2OC[C@@H](C)N(C(=O)NC(C)C)C[C@H]1C	12[16.7 µM]
CN1CCN(C(=O)C[C@@H]2C[C@@H]3c4cc(NC(=O)Cc5ccncc5)ccc4O[C@@H]3[C@@H](CO)O2)CC1	11[16.7 µM]

Further compounds follow:
SMILES	MT1-MMP act inh	MT1-MMP act inh RFP	Env fusion inh
O=C(CN1CCCC1)Nc1nc(-c2ccc(Cl)cc2)cs1	9	5	x
CC1(C)CC(N2CCOCC2)=CC(=S)N1	-4	1	x
COc1cc(CCN=Cc2ccccc2O)c([N+](=O)[O-])cc1OC	1	4	x
Cc1ccc(NS(=O)(=O)N2CCCCC2)cc1	0	3	x
C[C@@H](c1ccccc1)N1C[C@@H](COCc2ccccc2)Oc2cc(N3CC[C@H](O)C3)ccc2S1(=O)=O	-4	-10	x
CCCCC[C@@H](C)N1C[C@H](COCc2ccccc2)Oc2cc(N3CC[C@H](N(C)C)C3)ccc2S1(=O)=O	-4	-1	x
CCCCCC(=O)N1C[C@@H](O)[C@H](n2cc(COC(=O)c3ccccc3)nn2)C[C@@H]1c1ccccc1	-2	-3	x
CCC1=C(c2ccc(OC)cc2)CCC(C(=O)O)C1C (stereo unspecified)	4	1	x
Cc1ccc2c(c1C)C(=O)C(=O)N2	0	2	x
O=C(COC(=O)CC1SC(N2CCCC2)=NC1=O)Nc1ccc(Br)cc1 (stereo unspecified)	-1	0	x
COCCNc1nc(-c2ccccc2CO)c2sc(-c3ccccc3)cc2n1	-2	-6	x
O=C1CCCCCN1C(=O)c1ccccc1	-3	-1	x
